Compound activity: PubChem BioAssay, several laboratories
PKD1 kinase inh: inhibitors of human PKD1 kinase. Q15139. PKD1 kinase fluorescence polarization assay. inhibition, %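 (about 10 µM by stock and volumes)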. actives 0.056% (n = 200,000). AID 797;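 active = inhibition of 50% or more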;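 also: controls were vehicle for no effect and a reference inhibitor for full effect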
GALR2 ag: agonists of human galanin receptor 2 (GALR2) | O43603 | GALR2-expressing cells, agonist activation read-out | activation, %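 (tested at 5 µM)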 | actives 0.48% (n = 140,000) | AID 803;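 active = above mean plus 3 SD of all compounds, about 5% in these data, not always enough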;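 also: 0% = vehicle buffer wells and 100% = reference agonist at full effect; tested in CHO reporter cells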
Target sequence (O43603 whole entry, looked up): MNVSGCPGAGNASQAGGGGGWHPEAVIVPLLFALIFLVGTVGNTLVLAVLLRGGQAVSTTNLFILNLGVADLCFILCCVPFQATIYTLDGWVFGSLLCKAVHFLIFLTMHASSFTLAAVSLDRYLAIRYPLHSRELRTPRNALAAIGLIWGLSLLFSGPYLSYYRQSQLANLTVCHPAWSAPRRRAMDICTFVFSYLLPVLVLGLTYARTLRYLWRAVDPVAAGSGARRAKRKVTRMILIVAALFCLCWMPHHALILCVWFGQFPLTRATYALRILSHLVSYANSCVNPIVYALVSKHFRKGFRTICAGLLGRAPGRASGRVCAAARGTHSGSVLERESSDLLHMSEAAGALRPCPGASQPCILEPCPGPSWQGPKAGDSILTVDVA
INS promoter inh: TRM-6 insulin promoter activity inhibition | TRM-6 cells (human fetal islet line), insulin promoter-eGFP reporter, imaging; reporter expression induced with tamoxifen | inhibition, % at 2 µM | actives 0.9% (n = 130,000);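 active = inhibition above the mean plus 3 SD, with well images judged a real hit on visual review, cut at about 60% in these data, passing the limit was not always enough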
RGS16-Gao HTS: regulators of human RGS16-Galphao interaction | O15492+P09471 | bead-based flow cytometry RGS16-Galphao binding, fluorescence; actives lie on both sides | binding response (% of control), % at 10 µM | actives 0.38% (n = 220,000);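 active = below 25% or above 175%, edge rows of some plates excepted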;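 also: Galphao activated by GDP with aluminum fluoride before binding; 100% = wells without compound and 0% = beads without RGS; some results beyond the cut were filed as inactive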
Target sequence (O15492 whole entry, looked up): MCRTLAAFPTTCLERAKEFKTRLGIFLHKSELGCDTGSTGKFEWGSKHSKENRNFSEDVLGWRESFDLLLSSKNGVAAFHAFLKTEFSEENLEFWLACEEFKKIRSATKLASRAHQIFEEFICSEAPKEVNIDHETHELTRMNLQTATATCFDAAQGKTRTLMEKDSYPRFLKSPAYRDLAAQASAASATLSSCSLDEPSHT
Target sequence (P09471 whole entry, looked up): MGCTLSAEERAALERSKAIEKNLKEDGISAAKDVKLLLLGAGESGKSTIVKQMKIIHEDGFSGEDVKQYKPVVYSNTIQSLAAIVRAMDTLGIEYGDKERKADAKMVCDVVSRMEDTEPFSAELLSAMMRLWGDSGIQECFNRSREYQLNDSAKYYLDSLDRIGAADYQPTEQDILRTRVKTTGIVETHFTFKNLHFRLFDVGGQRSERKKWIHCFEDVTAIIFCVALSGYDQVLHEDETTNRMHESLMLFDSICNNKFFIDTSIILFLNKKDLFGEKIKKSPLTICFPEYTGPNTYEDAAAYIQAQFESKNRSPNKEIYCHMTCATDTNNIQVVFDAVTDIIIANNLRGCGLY
HSV augment: HSV replication enhancement. HSV replication augmentation in cells, fold increase. maximum fold increase. actives 0.005% (n = 220,000). AID 1956;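 active = peak rise of 1.5-fold or more in the series; tested in PC3 cells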;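 also: first round at 10 µM; read as green reporter fluorescence; hits show the peak of a series up to 25 µM; 1 = signal of infected wells without compound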
INS promoter inh cell count: second read-out of INS promoter inh, no call of its own (marks repeat the call); normalized cell count, %; measured here: cell count, toxicity; reference of the scale not given here;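 cells exposed to compound for 48 h; stained nuclei by imaging scaled within each plate; lower means fewer cells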
HSV augment primary fold: recorded beside HSV augment, whose call it bears; fold increase; compound at 10 µM; measured here: primary screen fold increase 10 uM; tested in PC3 cells;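 GFP signal in the first replicate; 1 = infected wells without compound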
An asterisk follows results filed as active; i = inactive; · = not tested or not shown.

SMILES | PKD1 kinase inh | GALR2 ag | INS promoter inh | INS promoter inh cell count | RGS16-Gao HTS | HSV augment | HSV augment primary fold
CCCn1nc(C(=O)Nc2ccc(S(=O)(=O)Nc3nccs3)cc2)c2ccccc2c1=O | -11 | -1.6 | 5 | 82 | 117 | i | 1.1
COc1cc(OC)cc(C(=O)Nc2ccc(S(=O)(=O)Nc3ncccn3)cc2)c1 | -14 | · | -56 | 87 | 102 | i | 0.97
CCOC(=O)CN1C(=O)CN(c2ccc(C)cc2)C1=O | -2 | 0.4 | · | · | 105 | i | 1.1
COc1cc(OC)c(OC)cc1/C=N/n1c(C)nnc1C | -17 | -2.5 | 50 | 158 | 106 | i | 0.95
Cc1nc2c(C)cccn2c1/C(O)=C1\C(=O)C(=O)N(CCN(C)C)C1c1ccco1 (stereo unspecified) | · | · | · | · | 104 | i | 0.97
O=C(CSc1nnnn1Cc1ccccc1)Nc1ccccc1 | · | · | · | · | 114 | i | 0.93
COc1ccc(CNn2c(C)nc3ccccc3c2=O)cc1 | 7 | -1.0 | · | · | 102 | i | 1
Cn1c(/C=C(\C#N)C(N)=S)ccc1-c1ccc(Br)cc1 | -6 | · | · | · | 103 | i | 0.98
Cn1ccnc1SCC(=O)c1ccc(Cl)cc1 | 7 | · | · | · | 103 | i | 0.83
CC(=O)N1C(c2ccccc2O)C[C@]2(C)CC(=O)NC12 (stereo partly specified) | 0 | · | -6 | 82 | 101 | i | 1.2
COc1ccc2cc(CN(Cc3ccco3)Cc3nnnn3C3CCCCC3)c(=O)[nH]c2c1 | 5 | 0.8 | · | · | 103 | i | 0.73
CS(C)(=O)=NS(=O)(=O)c1ccc(Cl)cc1 | 5 | -2.0 | -38 | 124 | 101 | i | 0.87
CCOC(=O)CCCNC(=O)CCNC(=O)c1ccc(OC(C)C)cc1 | -4 | -0.7 | 36 | 51 | 113 | i | 0.84
COC(=O)/C(=C/c1ccc2c(c1)c1ccccc1n2C)NC(=O)c1ccccc1 | 0 | 0.1 | 35 | 147 | 102 | i | 0.93
c1ccc(OCc2nc3ccccc3s2)cc1 | -3 | 0.0 | 9 | 84 | 88 | i | 0.73
CCCCNC(=O)c1c(O)c2cccc3c2n(c1=O)CCC3 | 0 | -1.6 | 12 | 130 | 99 | i | 0.96
Cc1ccc(-c2ccc(/C=N/NC(=O)Cc3nnc(N)s3)o2)cc1Cl | · | · | · | · | 102 | i | 0.85
COc1ccc(C(NC(=O)CNC(C)=O)C(=O)Nc2ccc3c(c2)OCCO3)cc1 (stereo unspecified) | -10 | -4.9 | -14 | 79 | 98 | i | 0.94
c1cc2c(cc1-c1[nH]ncc1CN1CC3C[C@@H]4CC1C[C@H](C3)C4)OCO2 | -2 | · | 25 | 120 | 95 | i | 1
CCOc1cc2[nH]c(=O)n(CCCCC(=O)NC3CCCCCC3)c(=O)c2cc1OCC | -3 | -2.3 | · | · | 103 | i | 0.87
Cc1c(C(=O)NCc2ccc3c(c2)OCO3)oc2ccc(S(=O)(=O)N3CCC(C)CC3)cc12 | -3 | -0.8 | -50 | 88 | 195 | i | 0.85
O=C(CCC(=O)NNC(=S)Nc1ccccc1)NCc1ccccc1 | -3 | -1.0 | 24 | 87 | 102 | i | 1.1
COc1ccc(Oc2cc(C)nc(Cl)n2)nn1 | -8 | · | 61 | 95 | 105 | i | 0.95
O=C(Nc1cccc(F)c1)N1CCN(C/C=C/c2ccccc2)CC1 | -5 | -1.1 | 71 | 135 | 117 | i | 0.86
O=C(CCS(=O)(=O)c1cccc2nsnc12)N1CC(=O)N(CCc2ccccc2)C(=O)C1 | -8 | -1.9 | -30 | 107 | 96 | i | 0.84

(next part)
SMILES | PKD1 kinase inh | GALR2 ag | INS promoter inh | INS promoter inh cell count | RGS16-Gao HTS | HSV augment | HSV augment primary fold
Brc1ccccc1OCCOc1cccc2cccnc12 | 5 | -0.8 | 57 | 151 | 107 | i | 0.68
Cc1nn2c(NCCCN3CCOCC3)c3c(nc2c1-c1ccccc1)CCC3 | -9 | -1.1 | · | · | 100 | i | 1
COCCn1c(C)cc(/C=C2/NC(=O)N(c3cccc(Cl)c3)C2=O)c1C | -5 | · | · | · | 91 | i | 1.1
COc1ccc(CNC(=S)N2CCN(S(=O)(=O)c3cccc(F)c3)CC2)cc1 | · | · | · | · | 96 | i | 1
Cc1cc(Cl)ccc1OCC(=O)Nc1nc(-c2cccnc2)cs1 | · | · | · | · | 99 | i | 1
COc1ccc(C(=O)Nc2cc(C)on2)cc1 | -13 | -1.3 | · | · | 99 | i | 0.86
Cc1ccc2nc(SCC(=O)c3c(C)[nH]c4ccccc34)[nH]c2c1 | -4 | -0.2 | 37 | 110 | 108 | i | 0.78
CCC(CO)NC1=CC(=O)CCC1 (stereo unspecified) | -3 | · | 0 | 107 | 105 | i | 1
Cc1nc2ccccc2c(C)c1C(=O)c1ccccc1 | -3 | · | 24 | 129 | 107 | i | 1
Cc1ccc(NC(=O)COC(=O)C2CC3C=CC2C3)cc1S(=O)(=O)N1CCCCC1 (stereo unspecified) | -2 | 0.0 | · | · | 106 | i | 0.92
O=C(O)COn1c(-c2ccccc2)nc2ccc(Cl)cc21 | -4 | · | -76 | 146 | 100 | i | 0.88
CCCC(=O)Nc1cccc(NC(=O)CN2CCN(c3ccccc3OC)CC2)c1 | -2 | -0.6 | · | · | 98 | i | 1
O=C(CSc1nc2ccccc2s1)Nc1ccc(C(=O)O)cc1 | · | · | · | · | 104 | i | 1.1
NC(=O)c1ccc(C(F)(F)F)n(Cc2ccc(F)c(F)c2)c1=O | -2 | · | · | · | 107 | i | 0.96
CCOc1ccc(-c2csc(NC(=O)C3CCCO3)n2)cc1 (stereo unspecified) | -7 | -0.6 | -248 | 112 | 102 | i | 1
O=C(NCC(c1cccnc1)N1CCOCC1)c1ccco1 (stereo unspecified) | -2 | -1.1 | 50 | 66 | 96 | i | 0.93
O=[N+]([O-])c1cccc(-c2nc3ccccc3s/c2=N/O)c1 | · | · | · | · | 98 | i | 0.95
CN(C)c1ccc(C(=O)Nc2cc(C(F)(F)F)ccc2-n2cncn2)cc1 | -4 | -0.1 | -3 | 43 | 102 | i | 0.91
Cc1cccc(NC(=S)N2CCCCC2c2cccnc2)c1C (stereo unspecified) | · | · | · | · | 99 | i | 0.91
CC(=O)Nc1ccc(C(=O)OCC(=O)NC2CCCCCCC2)cc1 | -2 | · | 0 | 107 | 106 | i | 0.92
O=C(Cn1cnc2c(nnn2-c2ccc(F)cc2)c1=O)N1CCCc2ccccc21 | -13 | -1.2 | -30 | 89 | 105 | i | 0.84
COc1cccc(C(C(=O)NCC2CCCO2)N(CC2CCCO2)C(=O)CN2C(=O)c3ccccc3S2(=O)=O)c1 (stereo unspecified) | -6 | · | · | · | 105 | i | 0.89
O=C(O)CSCNC(=O)CC12CC3CC(CC(C3)C1)C2 | 8 | -1.2 | -38 | 101 | 106 | i | 0.91
CCOC(=O)N1CCC(NC(=O)c2cc(C(=O)NCc3cccc(Cl)c3)ccc2CO)CC1 | 0 | 0.3 | · | · | 79 | i | 1
Cc1nc2ccc(-c3nc4cc(N)ccc4o3)cc2[nH]1 | -5 | -1.8 | 15 | 58 | -38 | i | 0.87

Following part:
SMILES | PKD1 kinase inh | GALR2 ag | INS promoter inh | INS promoter inh cell count | RGS16-Gao HTS | HSV augment | HSV augment primary fold
Cc1cc2cc(CN(CCN3CCOCC3)C(=O)Nc3ccccc3F)c(=O)[nH]c2cc1C | 11 | 0.0 | · | · | 108 | i | 0.88
CC(=O)Nc1ccc(OCC(O)CN2CCN(c3ccc(C)c(Cl)c3)CC2)cc1 (stereo unspecified) | 5 | -0.2 | -5 | 62 | 104 | i | 0.69
O=C(NC(=S)NC1CCCCCCCCCCC1)c1cccnc1 | 5 | -2.7 | 25 | 103 | 108 | i | 0.88
Cc1nc(SCc2ccc(O)c([N+](=O)[O-])c2)c([N+](=O)[O-])[nH]1 | · | · | · | · | 100 | i | 1.1
CCN(CC)C(=S)SCC(=O)c1ccc(Br)cc1 | 0 | -0.5 | -381 | 52 | 105 | i | 0.88
COc1ccc2c(c1OC)C(=O)N(c1cccc(C)c1)C2 | 0 | -0.5 | 33 | 107 | 98 | i | 0.92
CN(Cc1ccccc1)C(=O)COC(=O)c1cncc(Br)c1 | -2 | · | 8 | 138 | 104 | i | 1
CN1CCN(S(=O)(=O)c2cccc(S(=O)(=O)c3cccc(S(=O)(=O)N4CCN(C)CC4)c3)c2)CC1 | -14 | -2.5 | -29 | 84 | 107 | i | 0.99
COc1cccc(-c2nnc(SCC(=O)N3CCCC3=O)n2-c2ccccc2)c1 | -11 | 0.0 | 28 | 109 | 88 | i | 0.96
CCOc1ccccc1C(=O)N1CCC(n2nnc3cc(C(F)(F)F)ccc32)CC1 | 1 | 1.3 | -68 | 211 | 109 | i | 0.88
NC(=S)N/N=C\c1c(OCc2ccccc2Cl)ccc2ccccc12 | 1 | · | · | · | 103 | i | 1
O=C(CCS(=O)(=O)c1cccs1)N1CCN(c2ccc(F)cc2)CC1 | 3 | -2.7 | · | · | 106 | i | 0.77
CC(C)(C)NC(=O)C1CCN(C(=O)c2ccc(Br)cc2)CC1 | 0 | -0.6 | -244 | 64 | 99 | i | 0.92
CCCC(C)C(=O)Nc1ccc(S(=O)(=O)Nc2nccc(C)n2)cc1 (stereo unspecified) | -1 | · | 56 | 83 | 101 | i | 0.96
O=C(NCc1ccc2c(c1)OCO2)c1cc(-c2ccccc2)on1 | 1 | -2.0 | 48 | 133 | 108 | i | 0.69
COc1ccc([N+](=O)[O-])cc1NCc1ccccc1 | -4 | -1.2 | -56 | 95 | 99 | i | 0.81
Cc1nn(C(C)(C)C)c(C)c1/C=N/OC(=O)Nc1ccc(Cl)c(Cl)c1 | · | · | · | · | 102 | i | 1
CC(C)COC(=O)CNc1n[nH]c(=S)[nH]c1=O | 0 | 0.3 | -14 | 123 | 102 | · | ·
COC(=O)C1=C(C(=O)OC)[C@@H]2N(C)c3ccccc3[C@@]23C[C@@H](C(=O)OC)N(C(C)=O)C3=N1 | · | · | · | · | 98 | i | 0.91
Cc1cc(/C=N/NC(=O)C(O)(c2ccccc2)c2ccccc2)c(C)n1-c1ccc(C(=O)O)cc1 | -10 | -0.5 | · | · | 109 | i | 1.1
CCn1c(SCC(=O)Nc2cc(C)on2)nc2c1c(=O)n(C)c(=O)n2C | -9 | 1.1 | -6 | 104 | 102 | i | 0.9
NNC(=O)c1cc2nc(-c3cccs3)cc(C(F)(F)F)n2n1 | -8 | · | · | · | 103 | i | 0.96
Cc1ccc(-n2c(=O)c3c4c(sc3n(Cc3cc(=O)n5ccccc5n3)c2=O)CCC4)cc1C | -12 | 0.5 | 36 | 120 | 107 | i | 0.81
COc1cc(/C=N/Nc2ccc(Cl)c(C(=O)O)c2)ccc1OC(=O)c1ccco1 | -6 | · | -13 | 84 | 100 | i | 0.99
O=C(Nc1ccccc1)c1ccc(S(=O)(=O)N2CCCCC2)cc1 | -20 | -3.1 | · | · | 103 | i | 0.63

In the list so far, these have a Cl atom:
SMILES | PKD1 kinase inh | GALR2 ag | INS promoter inh | INS promoter inh cell count | RGS16-Gao HTS | HSV augment | HSV augment primary fold
Cn1ccnc1SCC(=O)c1ccc(Cl)cc1 | 7 | · | · | · | 103 | i | 0.83
CS(C)(=O)=NS(=O)(=O)c1ccc(Cl)cc1 | 5 | -2.0 | -38 | 124 | 101 | i | 0.87
Cc1ccc(-c2ccc(/C=N/NC(=O)Cc3nnc(N)s3)o2)cc1Cl | · | · | · | · | 102 | i | 0.85
COc1ccc(Oc2cc(C)nc(Cl)n2)nn1 | -8 | · | 61 | 95 | 105 | i | 0.95
COCCn1c(C)cc(/C=C2/NC(=O)N(c3cccc(Cl)c3)C2=O)c1C | -5 | · | · | · | 91 | i | 1.1
Cc1cc(Cl)ccc1OCC(=O)Nc1nc(-c2cccnc2)cs1 | · | · | · | · | 99 | i | 1
O=C(O)COn1c(-c2ccccc2)nc2ccc(Cl)cc21 | -4 | · | -76 | 146 | 100 | i | 0.88
CCOC(=O)N1CCC(NC(=O)c2cc(C(=O)NCc3cccc(Cl)c3)ccc2CO)CC1 | 0 | 0.3 | · | · | 79 | i | 1
CC(=O)Nc1ccc(OCC(O)CN2CCN(c3ccc(C)c(Cl)c3)CC2)cc1 (stereo unspecified) | 5 | -0.2 | -5 | 62 | 104 | i | 0.69
NC(=S)N/N=C\c1c(OCc2ccccc2Cl)ccc2ccccc12 | 1 | · | · | · | 103 | i | 1
Cc1nn(C(C)(C)C)c(C)c1/C=N/OC(=O)Nc1ccc(Cl)c(Cl)c1 | · | · | · | · | 102 | i | 1
COc1cc(/C=N/Nc2ccc(Cl)c(C(=O)O)c2)ccc1OC(=O)c1ccco1 | -6 | · | -13 | 84 | 100 | i | 0.99
